# Mtb H37Rv: M. tuberculosis H37Rv growth inhibitors, H37Rv strain (AID 1626) | M. tuberculosis H37Rv growth inhibition; higher % means a stronger effect | inhibition, % at 10 µM; hits with a dose series show IC50 in µM | hit rate 0.95% among 220,000;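 active = confirmed in a dose series; inconclusive = inhibition above 80% but not taken into the dose series; inactive = below 80% or under 30% at every dose of the series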;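 note: bacteria incubated seven days before Alamar blue readout; 0% = bacteria only wells and 100% = bacteria with antibiotic wells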
# YopH PTP inh: YopH (Yersinia) phosphatase inhibition; fluorescence Ex485/Em525; AID 898; inhibition, %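 (about 10 µM by stock and volumes)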; hit rate 0.16% among 140,000;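 active = inhibition of 50% or more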;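 note: controls were vehicle for no effect and minimum signal wells for full effect; inactives centre near -20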
# Mtb betalactam: beta-lactam sensitization of Mtb H37Rv; hit rate 0.27% among 330,000; inhibition, % at 25 µM; M. tuberculosis H37Rv growth with meropenem, percent inhibition; hits of this screen are not shown here; AID 434955;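 active = about 74% or more and at least 40 points above the plate without the antibiotic, then above 30% in a dose series; inconclusive = first-round hits that could not be retested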;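 note: growth measured after seven days incubation then overnight dye step; 0% = bacteria only wells and 100% = bacteria with antibiotic; twin plates without the antibiotic show which effects depend on it; some results filed as inactive read as strong as hits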
# RecA intein inh: blocks M. tuberculosis RecA intein splicing | hit rate 0.75% among 290,000 | AID 2221 | cell-free RecA intein splicing, fluorescence | inhibition, %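 (about 9 µM by stock and volumes)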; in the data active = inhibition above about 30%; inconclusive = no clear call, values can overlap the other calls;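 note: 0% = vehicle wells and 100% = reference inhibitor control wells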
# Target sequence (P9WHJ3 whole entry, looked up): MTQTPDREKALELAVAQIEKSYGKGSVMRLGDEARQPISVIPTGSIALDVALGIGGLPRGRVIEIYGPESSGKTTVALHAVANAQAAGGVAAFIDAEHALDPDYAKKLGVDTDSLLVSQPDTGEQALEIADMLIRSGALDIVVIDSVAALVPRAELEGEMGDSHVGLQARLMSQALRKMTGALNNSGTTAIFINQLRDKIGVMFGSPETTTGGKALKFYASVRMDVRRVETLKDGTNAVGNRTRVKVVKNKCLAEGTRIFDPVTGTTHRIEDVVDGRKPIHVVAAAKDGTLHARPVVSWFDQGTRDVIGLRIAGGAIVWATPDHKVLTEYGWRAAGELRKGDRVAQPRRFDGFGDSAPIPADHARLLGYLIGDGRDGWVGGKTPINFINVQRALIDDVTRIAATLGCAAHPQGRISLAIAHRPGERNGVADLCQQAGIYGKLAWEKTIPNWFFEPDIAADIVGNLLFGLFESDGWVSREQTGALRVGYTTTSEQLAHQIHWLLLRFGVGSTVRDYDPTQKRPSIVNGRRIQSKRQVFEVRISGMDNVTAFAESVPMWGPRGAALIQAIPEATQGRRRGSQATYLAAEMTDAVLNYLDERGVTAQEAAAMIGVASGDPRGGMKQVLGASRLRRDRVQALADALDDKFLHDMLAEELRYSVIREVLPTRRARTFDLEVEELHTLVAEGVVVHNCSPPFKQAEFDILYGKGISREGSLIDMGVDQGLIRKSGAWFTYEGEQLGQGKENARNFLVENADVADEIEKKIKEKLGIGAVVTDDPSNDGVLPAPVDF
# Arbovirus inh: arbovirus infection inhibition | inhibition, % at 10 µM | hit rate 0.37% among 200,000 | arbovirus infection cell-based antiviral screen | AID 1251;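 active = inhibition from about 30%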;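 note: bluetongue infection of BSR cells; cell survival read as ATP light after 72 h; 0% = infected wells without compound and 100% = uninfected wells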
# Arbovirus inh repeat: recorded beside Arbovirus inh, whose call it bears; inhibition, %; measured here: 10K subset replicate screen; many hits read low in the repeat;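 first of two repeat runs on a subset; 0% = infected and 100% = uninfected wells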
# Active calls of the source: *; ? = inconclusive; · = no result given. The list is partial (hit frequency here may not be typical).
# Start of the data: the first 18 entries, ahead of the listing:
SMILES,Mtb H37Rv,YopH PTP inh,Mtb betalactam,RecA intein inh,Arbovirus inh,others
O=[N+]([O-])c1ccc2c(c1)C(O)n1nc(-c3ccc(Cl)cc3Cl)nc1S2 (stereo not given),4%,7,-6,-2.6,-2,
O=C(CCS(=O)(=O)c1ccc(Cl)cc1)Nc1nnc(-c2cccs2)o1,·,·,25,-2.0,·,
COc1ccccc1N1C(=O)c2ccccc2NC1c1cc(OC)c(OC)c(OC)c1 (stereo not given),·,·,-4,-7.5,·,
Cc1ccc(N(CC(O)COCc2ccco2)S(=O)(=O)c2ccc(C)cc2)cc1 (stereo not given),-5%,-38,0,14,-2,
CC(=O)c1ccc(-n2cc(-c3ccc(C(C)(C)C)cc3)[n+]3c2SCCC3)cc1,41%,·,79,3.0,6,
CN(C)C(CNC(=O)c1ccc(-c2ccccc2)cc1)c1ccccc1 (stereo not given),·,·,4,3.0,·,
COc1ccc(-c2cc(CS(=O)(=O)c3ccccc3)on2)cc1,2%,·,6,-0.4,0,
O=C(O)c1ccc(/C=N/N2CCN(Cc3cccc4ccccc34)CC2)cc1,4%,·,-3,8.3,-24,
Cc1ccc(/C=C2/Sc3ccc(C(=O)N4CCN(c5ccccn5)CC4)cc3NC2=O)cc1,·,·,8,-1.2,·,
CC(=O)c1c(C)n([O-])c2ccccc2[n+]1=O,79%,-5,92,-0.8,-5,
Cc1ccc(NC(=O)c2ccc(Br)o2)cc1S(=O)(=O)N(C)C,8%,·,1,1.3,-12,
COC(=O)C1(C)Nc2ccccc2C(=O)N1c1ccccc1C (stereo not given),-4%,-25,-2,0.7,0,Arbovirus inh repeat=4
COC(=O)c1sccc1NC(=O)Nc1ccc(OC)c(OC)c1,·,·,0,-1.0,·,
Cc1ccc2nc(/C(C#N)=C\c3ccc(Oc4ccc([N+](=O)[O-])cn4)cc3)[nH]c2c1,17%,10,2,·,10,
CC1NC(=O)NC1CCCCCC(=O)Nc1ccc(F)c(Cl)c1 (stereo not given),-4%,·,-7,1.4,-5,
CCN(CC)CCCN1C(=O)C(O)=C(C(=O)c2sc(C)nc2C)C1c1ccco1 (stereo not given),-5%,-24,-23,0.1,1,
CC(C)Cc1cc(CN2CCC(CO)(Cc3ccccc3)CC2)[nH]n1,2%,·,-3,0.9,·,
Clc1ccc(/C=N/Nc2nn[nH]n2)cc1,-12%,-43,7,2.7,-3,

# Main list, from the first entry:
SMILES,Mtb H37Rv,YopH PTP inh,Mtb betalactam,RecA intein inh,Arbovirus inh,others
O=[N+]([O-])c1ccc2c(c1)C(O)n1nc(-c3ccc(Cl)cc3Cl)nc1S2 (stereo not given),4%,7,-6,-2.6,-2,
O=C(CCS(=O)(=O)c1ccc(Cl)cc1)Nc1nnc(-c2cccs2)o1,·,·,25,-2.0,·,
COc1ccccc1N1C(=O)c2ccccc2NC1c1cc(OC)c(OC)c(OC)c1 (stereo not given),·,·,-4,-7.5,·,
Cc1ccc(N(CC(O)COCc2ccco2)S(=O)(=O)c2ccc(C)cc2)cc1 (stereo not given),-5%,-38,0,14,-2,
CC(=O)c1ccc(-n2cc(-c3ccc(C(C)(C)C)cc3)[n+]3c2SCCC3)cc1,41%,·,79,3.0,6,
CN(C)C(CNC(=O)c1ccc(-c2ccccc2)cc1)c1ccccc1 (stereo not given),·,·,4,3.0,·,
COc1ccc(-c2cc(CS(=O)(=O)c3ccccc3)on2)cc1,2%,·,6,-0.4,0,
O=C(O)c1ccc(/C=N/N2CCN(Cc3cccc4ccccc34)CC2)cc1,4%,·,-3,8.3,-24,
Cc1ccc(/C=C2/Sc3ccc(C(=O)N4CCN(c5ccccn5)CC4)cc3NC2=O)cc1,·,·,8,-1.2,·,
CC(=O)c1c(C)n([O-])c2ccccc2[n+]1=O,79%,-5,92,-0.8,-5,
Cc1ccc(NC(=O)c2ccc(Br)o2)cc1S(=O)(=O)N(C)C,8%,·,1,1.3,-12,
COC(=O)C1(C)Nc2ccccc2C(=O)N1c1ccccc1C (stereo not given),-4%,-25,-2,0.7,0,Arbovirus inh repeat=4
COC(=O)c1sccc1NC(=O)Nc1ccc(OC)c(OC)c1,·,·,0,-1.0,·,
Cc1ccc2nc(/C(C#N)=C\c3ccc(Oc4ccc([N+](=O)[O-])cn4)cc3)[nH]c2c1,17%,10,2,·,10,
CC1NC(=O)NC1CCCCCC(=O)Nc1ccc(F)c(Cl)c1 (stereo not given),-4%,·,-7,1.4,-5,
CCN(CC)CCCN1C(=O)C(O)=C(C(=O)c2sc(C)nc2C)C1c1ccco1 (stereo not given),-5%,-24,-23,0.1,1,
CC(C)Cc1cc(CN2CCC(CO)(Cc3ccccc3)CC2)[nH]n1,2%,·,-3,0.9,·,
Clc1ccc(/C=N/Nc2nn[nH]n2)cc1,-12%,-43,7,2.7,-3,
Cc1ccccc1Cn1ccc(=NCc2ccccc2)cc1,76%,-9,91,7.5,6,
CCSCc1nnc(SCC(=O)Nc2nc3ccccc3s2)n1C,-9%,-23,36,0.1,10,
CCOC(=O)N1CCN(C(=O)c2ccccc2N(C)S(C)(=O)=O)CC1,3%,-191,1,-0.3,3,
c1csc(-c2nnc(Cc3cccc4ccccc34)o2)c1,9%,5,-4,11,7,
CC(C)Oc1ccccc1NC(=O)CSc1nc2ccccc2c(=O)n1C,·,·,-2,2.3,·,
CCOC(=O)NC(=O)CSc1ccc(C)cc1C,-7%,·,-3,2.0,-5,
O=C(c1cccnc1)N1CCC(Oc2ccc(C(=O)N3CCCCO3)cc2)CC1,5%,·,-6,0.9,-2,
c1ccc2[nH]c(NC3=NCCC3)nc2c1,4%,-2,98,2.7,-4,
O=C(NCCC1CCCCN1S(=O)(=O)c1ccc(F)cc1)C(=O)NCCN1CCOCC1 (stereo not given),·,·,3,-1.4,·,
C[C@]1(CO)CCC[C@@]2(C)C1CC[C@@H](CO)[C@@H]2CCc1ccoc1 (stereo not given in full),·,·,5,3.1,·,
Cc1ccc(S(=O)(=O)N(CC(=O)N/N=C/c2ccco2)Cc2ccccc2)cc1,-3%,-14,?,0.5,-2,
NC(=O)C1CC(=O)N(c2ccc(OCC(=O)NCc3ccccc3)cc2)C1 (stereo not given),·,·,-2,-0.2,·,
CCN1/C(=C2\C(=O)N(C)C(=S)N2c2ccccc2)C=Cc2ccccc21,2%,·,1,-2.0,·,
CCOc1ccc(C(=O)Nc2ccccc2CC)cc1[N+](=O)[O-],4%,-7,-11,-5.2,-3,
NC(N)=N/N=C/c1ccc(OCc2ccccc2)cc1,7%,-34,-3,5.8,-32,
COc1ccc2oc3c(c2c1)NC(=O)CN=C3c1ccccc1,-7%,·,5,3.2,-4,
Cc1ccc(C2c3c(oc4ccccc4c3=O)C(=O)N2CCCN2CCOCC2)o1 (stereo not given),7%,-16,-7,·,6,
CNC(=O)NC(=S)NC(=O)c1ccccc1Cl,-2%,·,-4,-1.2,28,
Cc1ccc(C)c(CN2C(=O)C3CCCN3c3ccc(S(=O)(=O)N4CCOCC4)cc32)c1 (stereo not given),-7%,-13,-9,·,-2,
CCOc1cc(-c2nnn(CC(=O)N3CCCCC3)n2)ccc1OC,·,·,-2,-0.4,·,
COCCCNC(=O)CSC1=Nc2ccccc2C2=NC(Cc3c[nH]c4ccccc34)C(=O)N12 (stereo not given),·,-43,-4,2.5,2,
O=C(COc1ccc(Cl)cc1)NCCCNC(=O)c1cnccn1,·,·,-4,0.6,·,
Cc1ccc(N=Cc2ccc(O)cc2O)cc1F,-4%,-5,-8,6.0,1,Arbovirus inh repeat=-5
CN1/C(=C\C(=O)c2cccnc2)Sc2ccccc21,-9%,·,-3,-3.8,-3,
C[C@H](NC(=O)c1ccccc1Cl)C(=O)Nc1ccccc1F,·,·,2,-2.3,·,
CC(=O)NC(NC(=S)N1CCCCCC1)C(Cl)(Cl)Cl (stereo not given),4%,·,-7,0.0,0,
Cc1nnc(SCCN2CCOCC2)c2nn(-c3ccccc3F)c(C)c12,-12%,-19,·,3.1,7,
CC(c1nccs1)N(C)C(=O)CCc1nnc(CCc2ccccc2)o1 (stereo not given),-2%,·,-13,1.1,4,
Cc1cc(F)ccc1NS(=O)(=O)c1cccc2nsnc12,·,·,-9,3.5,·,
CCOc1ccccc1NC(=O)NC1CCN(CC(=O)Nc2ccc3c(c2)OCCO3)CC1,3%,-24,-8,·,-7,
CCCCCCOc1ccc(N2C(=O)CC(N3CCN(CCN=CC4C(=O)CC(C)(C)CC4=O)CC3)C2=O)cc1 (stereo not given),-6%,·,-4,·,0,
CN(CCC(=O)Nc1ccc2c(c1)OCO2)Cc1ccccc1,-7%,-41,-6,0.5,-6,
CN(CC(=O)Nc1ccc(Cl)cc1)C(=O)Cc1c(F)cccc1Cl,·,·,2,0.3,·,
CCCCOc1ccc(/C=C/C(=O)NCCc2nc3ccccc3[nH]2)cc1,8%,1,?,2.1,-6,
O=C(COc1ncnc2sccc12)N1CCN(c2ccccc2)CC1,-10%,·,0,0.7,·,
C=COCCn1c(-c2nonc2N)nc2ccccc21,-1%,-40,0,0.1,-2,Arbovirus inh repeat=-1
COc1ccc(CNC(=O)C(=O)NCC2CCCN2S(=O)(=O)c2ccccc2)cc1 (stereo not given),·,·,2,-0.2,·,
COc1ccc(C(=O)Nn2cnc3ccccc3c2=O)cc1[N+](=O)[O-],·,·,-6,0.4,·,
COc1ccc(C(=O)O)cc1NC(=S)NC(=O)C(c1ccccc1)c1ccccc1,·,·,?,6.2,·,
O=c1c2cnn(-c3ccccc3)c2nc(-c2ccco2)n1-c1ccccc1,-3%,-12,-5,4.7,-1,Arbovirus inh repeat=2
Brc1ccc(-c2cn3nc4c(nc3n2)CCCC4)cc1,0%,5,-3,-63,4,
O=C(CSS(=O)(=O)O)N1CCN(C(=O)c2ccoc2)CC1,·,·,-6,-2.9,·,

# A draw from above in order of molecular weight, ascending:
SMILES,Mtb H37Rv,YopH PTP inh,Mtb betalactam,RecA intein inh,Arbovirus inh,others
O=C(CSS(=O)(=O)O)N1CCN(C(=O)c2ccoc2)CC1,·,·,-6,-2.9,·,
CCOc1cc(-c2nnn(CC(=O)N3CCCCC3)n2)ccc1OC,·,·,-2,-0.4,·,
Cc1ccc(NC(=O)c2ccc(Br)o2)cc1S(=O)(=O)N(C)C,8%,·,1,1.3,-12,

# The results go on:
SMILES,Mtb H37Rv,YopH PTP inh,Mtb betalactam,RecA intein inh,Arbovirus inh,others
CN(CC1COc2ccccc2O1)C(=S)Nc1ccccc1F (stereo not given),3%,-4,2,4.4,-10,
CCC(NC(=O)Cc1c(C)c2cc3c(cc2oc1=O)OC(C)(C)CC3)C(=O)O (stereo not given),·,·,2,-1.6,·,
CC1(C)Cc2ccccc2-c2nnc(-c3ccccc3)n21,1%,-26,2,-0.9,7,
CCSc1nnc(NC(=O)CSc2nc3c(c(=O)n2-c2ccccc2)SCC3)s1,1%,-1,-15,2.3,15,Arbovirus inh repeat=7
Cc1ccc(N2CCN(C(=O)CNS(=O)(=O)c3ccc(Br)s3)CC2C)cc1 (stereo not given),·,-43,2,2.7,3,
CCCCN1C(=O)C(=O)N(CC(=O)Nc2sc(C)c(CC)c2C(=O)OCC)C1=O,·,·,5,-3.2,·,
c1ccc(-n2c(Cc3cn4ccsc4n3)nnc2N2CCOCC2)cc1,-6%,-48,-1,0.8,10,
O=C(Nc1cc(N2CCOCC2)ncn1)NC1(C(F)(F)F)Oc2ccccc2O1,-3%,-23,1,-4.0,-1,
Cc1nc2ccccc2c(=O)n1/N=C/c1ccccc1F,·,·,-5,0.3,·,
O=C(Oc1ccccc1C(=O)N1CCOCC1)c1ccc(Br)cc1,-8%,-5,6,4.7,0,
COc1ccc(OC)c2[nH]c(=O)c(CCNC(=O)c3ccc(S(=O)(=O)N(C)C)cc3)cc12,·,-21,-15,1.3,1,
COc1cc(C2C(C#N)=C(N)OC3=C2C(=O)CC(C)(C)C3)c([N+](=O)[O-])cc1OC (stereo not given),·,-12,64,-13,8,
CCN(CC)c1ccc(/C=C(\C#N)C(N)=O)cc1,-1%,·,·,·,-10,
CC1CC(C)CN(C(=O)CSCC(=O)O)C1 (stereo not given),-5%,·,2,-3.5,·,
COc1ccc(Cl)cc1C(=O)NCc1ccc2c(c1)OCO2,·,·,4,-0.4,·,
O=C(COC(=O)/C=C/c1ccc(F)cc1)Nc1ccccc1-c1ccccc1,1%,-17,1,-1.5,-6,
CC(C)OCCCNC(=O)c1cc(S(=O)(=O)N2CCc3ccccc32)cn1C,·,·,-1,-4.2,·,
CC(=O)N(C)C1(c2nnnn2CCOC(=O)Nc2ccc(Cl)cc2)CCCCC1,0%,-2,-6,0.8,-6,
COCCN(Cc1ccccc1)C(=O)Cc1ccc(OC)c(S(=O)(=O)N2CCOCC2)c1,·,·,-16,-3.1,·,
O=C1C=C(NCc2ccccc2)CCC1,2%,-10,1,0.8,5,
CCC(C(=O)Nc1ncccn1)(C(F)(F)F)C(F)(F)F,-8%,-3,-4,0.2,2,
Cn1c(Sc2ccc(Br)cc2)c(C=O)c2ccccc21,16%,-21,-12,-1.6,-26,

# Source: PubChem
